Assay outcomes deposited in PubChem by Sanford-Burnham Center for Chemical Genomics.
NRP1-CendR mod: modulators of CendR peptide binding to human neuropilin-1; actives 0.85% (n = 360,000); O14786; inhibition, % at 25 µM; FAM-RPARPAR peptide binding to NRP-1, fluorescence polarization;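 active = inhibition or corrected inhibition above about 18%, plus a signal ratio from 0.5 to 1.5, limit read from the data, passing the limit was not always enough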; also: strong numbers were not always called active
Rpn11 inh: Rpn11 (human) deubiquitinase inhibition | O00487 | human 26S proteasome, Ub4-pepOG fluorescence polarization; 20S core pre-blocked with epoxomicin | calls only at 20 µM | actives 0.59% (n = 360,000) | AID 588493;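 active = inhibition at 20 µM, scaled to each plate's controls, above about 33%, limit read from the data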
Target sequence (O00487 whole entry, looked up): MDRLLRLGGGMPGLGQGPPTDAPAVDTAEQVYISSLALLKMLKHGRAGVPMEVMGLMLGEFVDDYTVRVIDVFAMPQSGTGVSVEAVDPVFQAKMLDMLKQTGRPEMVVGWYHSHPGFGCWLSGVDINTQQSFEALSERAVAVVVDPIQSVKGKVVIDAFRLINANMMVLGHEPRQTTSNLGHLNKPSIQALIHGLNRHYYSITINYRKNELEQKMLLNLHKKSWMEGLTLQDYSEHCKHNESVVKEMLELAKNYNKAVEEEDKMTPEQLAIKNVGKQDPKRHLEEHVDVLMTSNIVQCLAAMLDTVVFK
LMPTP block: LMPTP (human) inhibition; inhibition, % at 20 µM; recombinant LMPTP-A, OMFP fluorogenic substrate, fluorescence intensity; actives 0.22% (n = 360,000); AID 651560;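 active = compounds that cut the enzyme signal by at least half of the control window in the single-dose screen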;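 also: plate controls were DMSO wells with enzyme plus substrate for no effect and substrate without enzyme for full effect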
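Test system: LMPTP-A, protein tyrosine phosphatase of low molecular weight; Input: 0.625 nM enzyme; Incubation: 50 min dark incubation at room temperature; Signal: endpoint fluorescence intensity from OMFP dephosphorylation; Read-out basis: % inhibition versus control wells.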
STEP block: blocks human striatal-enriched tyrosine phosphatase. P54829. recombinant STEP, OMFP fluorogenic substrate, fluorescence. inhibition, % at 20 µM. actives 0.25% (n = 360,000);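 active = inhibition at 20 µM, scaled per plate between control wells, above about 37%, limit read from the data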;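 also: 0% = DMSO with enzyme and substrate and 100% = substrate only without enzyme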
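Measure: Control-normalized % inhibition with plate pattern correction | Test system: STEP phosphatase, cell-free reaction | Medium: pH 6.0 Bis-Tris with DTT and Tween 20 | Technique: Fluorescence, 480/540 nm | Times: Reaction 20 min, ambient temperature | Doses: Single compound dose of 20 µM, 1% DMSO final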
SUMO1-SIM PPI: modulators of human SUMO1-mediated protein-protein interactions; inhibition, % at 20 µM; SUMO1 binding to a labelled peptide, TR-FRET, 1 h; P63165; actives 0.33% (n = 360,000); in the data active = inhibition above about 37%
Target sequence (P63165 whole entry, looked up): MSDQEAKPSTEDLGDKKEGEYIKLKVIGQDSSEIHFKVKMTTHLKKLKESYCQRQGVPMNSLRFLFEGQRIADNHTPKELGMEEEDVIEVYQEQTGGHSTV
The depositor's hits bear a star; i = inactive; + = active, no number. The list is partial (hit frequency here may not be typical).

SMILES | NRP1-CendR mod | Rpn11 inh | LMPTP block | STEP block | SUMO1-SIM PPI
C[C@H]1[C@H](NC(=O)C(=NOC(C)(C)C(=O)O)c2csc(N)n2)C(=O)N1S(=O)(=O)O | -0.3 | i | -0.8 | 1.3 | 1.4
Cc1ccc(NC(=O)C(=O)Nc2ccccn2)cc1 | 1.2 | i | -2.3 | -1.2 | -2.7
CCN1CCN(C(=O)c2ccc(NS(=O)(=O)c3ccccc3)cc2)CC1 | 0.7 | i | -2.1 | -0.1 | -5.5
Nc1nc2c(ncn2COCCO)c(=O)[nH]1 | -11.4 | i | -1.0 | -3.3 | -2.5
O=C(O)c1cc(S(=O)(=O)N2CC=C(c3ccccc3)CC2)ccc1O | -25.2 | i | -0.6 | -1.6 | 9.3
COc1ccc(C(=O)NCCN(C)C)c2nc3ccccc3cc12 | 3.3 | i | 0.2 | -3.1 | -19.5
Cc1nc(-c2ccc(C(=O)Nc3ccc(F)cc3)cc2)cs1 | -3.9 | + | 18.9 | 5.7 | -5.0
NC1C2CN(c3nc4c(cc3F)c(=O)c(C(=O)O)cn4-c3ccc(F)cc3F)CC12 (stereo not given) | -4.4 | i | 48.0 | 1.8 | -7.1
CC(=O)OCC1=C(C(=O)O)N2C(=O)[C@@H](NC(=O)Cc3cccs3)[C@H]2SC1 | -82.5 | i | 1.7 | 13.6 | 19.1
Cc1ccn2cc(-c3cccc([N+](=O)[O-])c3)nc2c1 | 0.8 | i | -0.1 | -1.4 | -23.3
CCN(CC)CCNC(=O)c1ccc(N)cc1 | 3.0 | i | 1.8 | -0.7 | 8.7
COC(=O)c1ccc(C(=O)OC)c(NC(=O)Cc2cccs2)c1 | -15.1 | i | 54.3* | 10.2 | 5.1
CCN(CC)CCCNc1nc2cc(OC)c(OC)cc2c2nc(-c3cccnc3)nn12 | 0.2 | i | 6.6 | 6.3 | 8.3
O=C(Nc1ccc(-c2nc3ccccc3s2)cc1)C1=COCCO1 | 20.6 | i | 0.8 | -2.6 | -5.3
C=C(CN(C)C)C(=O)c1cc(OC)c(OC)cc1OC | -5.5 | i | -1.5 | -2.8 | 1.0
N=C(N)c1ccc(/C=C/c2ccc(C(=N)N)cc2O)cc1 | -8.5 | i | 65.0* | 0.0 | 77.8*
c1ccn2cc(-c3ccc4c(c3)OCCO4)nc2c1 | 0.1 | i | 1.5 | -0.2 | 2.5
Oc1cc2c(c(Cl)c1O)CCNCC2c1ccccc1 (stereo not given) | 18.0 | i | 3.1 | 3.7 | 4.3
CCC(C)(C)C(=O)O[C@H]1C[C@@H](C)C=C2C=C[C@H](C)[C@H](CC[C@@H]3C[C@@H](O)CC(=O)O3)[C@H]21 | -8.8 | i | -0.8 | 1.4 | -12.4
Cc1nc2ccccc2c(-c2ccccc2)c1CC(=O)O | -6.3 | i | -0.3 | -4.2 | -0.5
COc1ccc(CCN(C)CCCC(C#N)(c2ccc(OC)c(OC)c2)C(C)C)cc1OC (stereo not given) | 7.6 | i | -4.6 | 0.9 | -1.5
N#Cc1c(-c2ccc(Cl)cc2)c(-c2ccc(Cl)cc2)nn(CCO)c1=O | 7.8 | i | 0.6 | 0.5 | -44.1
c1ccc2c(c1)C1=NCCN1c1ccccc1-2 | -8.7 | i | 2.8 | 2.9 | 2.2
CCCC(=O)c1ccc(O)cc1O | 11.0 | i | -0.7 | -0.9 | 1.1
Nc1cc(=O)[nH]c(SCc2ccccc2)n1 | 2.8 | i | -2.2 | -3.1 | 5.5

14 structures already listed, arranged by molecular weight, largest number first.
SMILES | NRP1-CendR mod | Rpn11 inh | LMPTP block | STEP block | SUMO1-SIM PPI
C[C@H]1[C@H](NC(=O)C(=NOC(C)(C)C(=O)O)c2csc(N)n2)C(=O)N1S(=O)(=O)O | -0.3 | i | -0.8 | 1.3 | 1.4
CCC(C)(C)C(=O)O[C@H]1C[C@@H](C)C=C2C=C[C@H](C)[C@H](CC[C@@H]3C[C@@H](O)CC(=O)O3)[C@H]21 | -8.8 | i | -0.8 | 1.4 | -12.4
CC(=O)OCC1=C(C(=O)O)N2C(=O)[C@@H](NC(=O)Cc3cccs3)[C@H]2SC1 | -82.5 | i | 1.7 | 13.6 | 19.1
N#Cc1c(-c2ccc(Cl)cc2)c(-c2ccc(Cl)cc2)nn(CCO)c1=O | 7.8 | i | 0.6 | 0.5 | -44.1
CCN1CCN(C(=O)c2ccc(NS(=O)(=O)c3ccccc3)cc2)CC1 | 0.7 | i | -2.1 | -0.1 | -5.5
O=C(O)c1cc(S(=O)(=O)N2CC=C(c3ccccc3)CC2)ccc1O | -25.2 | i | -0.6 | -1.6 | 9.3
COC(=O)c1ccc(C(=O)OC)c(NC(=O)Cc2cccs2)c1 | -15.1 | i | 54.3* | 10.2 | 5.1
COc1ccc(C(=O)NCCN(C)C)c2nc3ccccc3cc12 | 3.3 | i | 0.2 | -3.1 | -19.5
Cc1nc(-c2ccc(C(=O)Nc3ccc(F)cc3)cc2)cs1 | -3.9 | + | 18.9 | 5.7 | -5.0
Oc1cc2c(c(Cl)c1O)CCNCC2c1ccccc1 (stereo not given) | 18.0 | i | 3.1 | 3.7 | 4.3
C=C(CN(C)C)C(=O)c1cc(OC)c(OC)cc1OC | -5.5 | i | -1.5 | -2.8 | 1.0
Cc1ccc(NC(=O)C(=O)Nc2ccccn2)cc1 | 1.2 | i | -2.3 | -1.2 | -2.7
CCN(CC)CCNC(=O)c1ccc(N)cc1 | 3.0 | i | 1.8 | -0.7 | 8.7
c1ccc2c(c1)C1=NCCN1c1ccccc1-2 | -8.7 | i | 2.8 | 2.9 | 2.2
